High-throughput results as filed in PubChem.
Rce1 inhib – blocks yeast Ras-converting enzyme; Q03530; AID 2563; yeast membranes, quenched prenylated peptide cleavage fluorescence; calls only; 0.27% of 290,000 active;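 active means fall in fluorescence gain of 50% or more versus controls, with final raw signal at or below 3038400; inconclusive means same 50% fall but final raw signal above 3038400; inactive means fall in fluorescence gain under 50%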;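 further: plate controls were neutral control wells for no effect and wells lacking membranes for full effect; tested at 10 µM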
Target sequence (Q03530 whole entry, looked up): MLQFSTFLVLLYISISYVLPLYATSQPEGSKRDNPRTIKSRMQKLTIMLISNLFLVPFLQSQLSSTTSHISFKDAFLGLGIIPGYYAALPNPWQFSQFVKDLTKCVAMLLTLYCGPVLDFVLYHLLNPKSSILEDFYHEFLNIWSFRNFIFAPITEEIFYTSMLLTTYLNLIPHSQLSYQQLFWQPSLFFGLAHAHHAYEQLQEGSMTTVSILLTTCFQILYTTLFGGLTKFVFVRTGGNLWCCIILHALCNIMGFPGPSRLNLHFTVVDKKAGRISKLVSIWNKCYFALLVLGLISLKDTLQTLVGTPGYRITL
PABP polyA inh – PABP-poly(A) binding inhibition. P11940. PABP-poly(A) RNA binding, fluorescence polarization. inhibition, % at 35 µM. 1% of 290,000 active;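 active means 50% or more with normal probe brightness, or confirmed in later tests; inconclusive means above 50% with abnormal brightness, or retests that disagree; inactive means below 50% or failed in later tests; about a fifth of its hits are not listed in these tables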;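 further: calls also rest on retests at 20 µM and on dose response follow-up; controls were probe without protein and protein plus probe with vehicle; some compounds called inactive have numbers as strong as hits; many hits fall short of the cut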
Target sequence (P11940 whole entry, looked up): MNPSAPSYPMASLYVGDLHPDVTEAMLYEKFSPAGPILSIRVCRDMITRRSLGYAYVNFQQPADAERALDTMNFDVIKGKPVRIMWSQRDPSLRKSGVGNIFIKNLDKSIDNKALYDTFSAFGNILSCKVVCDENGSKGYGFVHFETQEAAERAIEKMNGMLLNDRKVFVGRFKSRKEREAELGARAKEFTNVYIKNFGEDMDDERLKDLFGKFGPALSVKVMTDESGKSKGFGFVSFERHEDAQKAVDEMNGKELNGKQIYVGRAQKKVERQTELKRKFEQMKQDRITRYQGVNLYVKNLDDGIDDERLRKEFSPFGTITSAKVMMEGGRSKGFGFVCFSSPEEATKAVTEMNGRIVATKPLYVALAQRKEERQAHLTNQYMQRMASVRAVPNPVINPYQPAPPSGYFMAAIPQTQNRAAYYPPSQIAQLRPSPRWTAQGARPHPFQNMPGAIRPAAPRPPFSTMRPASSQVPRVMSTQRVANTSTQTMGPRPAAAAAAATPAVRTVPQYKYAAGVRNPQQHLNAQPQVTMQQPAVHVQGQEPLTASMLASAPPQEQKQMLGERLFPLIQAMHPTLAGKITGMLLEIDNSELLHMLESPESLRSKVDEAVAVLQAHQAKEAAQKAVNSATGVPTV
Env fusion inh – inhibitors of HIV Env-mediated cell fusion. inhibition, % at 12.3 µM. HeLa-JRFL Env/CEM21 cell fusion, luciferase. 1.1% of 360,000 active;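 active means mean replicate inhibition score of at least 50 and every replicate individually at or above 50; inconclusive means only one of the two criteria met; inactive means mean below 50 and not all replicates reaching 50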;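 further: 0% = plate neutral controls and 100% = maraviroc near 300 nM; one replicate is shown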
eIF4H FP inh – inhibitors of RNA binding by human eIF4H; eIF4H fluorescence polarization binding assay; AID 2012; Q15056; inhibition, % at 35 µM; 0.94% of 290,000 active;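 active means 50% or more with normal probe brightness, or confirmed in later tests; inconclusive means above 50% with abnormal brightness, or retests that disagree; inactive means below 50% or failed in later tests; about a fifth of its hits are not listed in these tables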;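 further: calls also rest on retests at 20 µM and on dose response follow-up; 0% = protein and probe with vehicle and 100% = probe without protein; strong numbers were not always called active; many hits fall short of the cut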
MT1-MMP act inh – blocks activation of human MT1-MMP. AID 651647. P50281. HT1080 RFP-PRO-GFP cells, GFP/RFP ratio fluorescence, overnight; percent of plate control window, DMSO zero. 0.061% of 360,000 active. GFP/RFP ratio change, % at 20 µM;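 active means GFP/RFP ratio change of at least 30% with cell ATP level not reduced by more than half and red fluorescence within 50% of control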; further: strong numbers were not always called active
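Test system: HT1080 cells expressing an RFP-PRO-GFP fluorescent reporter construct / Compound dosing: single-point 20 µM compound, 1% DMSO / Schedule: cells overnight before dosing, compound overnight, 37 °C, 5% CO2 / Evaluation: GFP/RFP fluorescence ratio / Control set: DMSO and RFP-L50D-GFP cell wells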
UUG fidelity – yeast start codon fidelity modulation. activity score, % at 18.7 µM. AID 602363. 0.13% of 350,000 active. S. cerevisiae UUG-firefly luciferase reporter, luminescence/redox ratio;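 active means replicate mean at a twofold rise or more, about +100% in these data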;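 further: firefly luciferase made from a UUG start codon reports start codon fidelity; reporter light over untreated wells divided by growth signal over untreated wells; some hits fall short of that in this replicate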
CSC inhib – cancer stem cell inhibition. cancer stem cell-like cells viability, luminescence. inhibition, % at 7.5 µM. 1.1% of 300,000 active. AID 2717;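 active means mean at 75% or more and at least half the replicates too; inconclusive means mean and replicates disagree; tested in HMLE shEcad cells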;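 further: 0% = median of negative and 100% = median of positive control wells; the first replicate is given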
eIF4H FP inh retest – second read-out of eIF4H FP inh, no call of its own (marks repeat the call); inhibition, %; compound at 20 µM; confirmation average;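 mean of two retest wells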
PABP polyA inh retest – recorded beside PABP polyA inh, whose call it bears; inhibition, %; compound at 20 µM; confirmation repeats;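 mean of two retest wells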
MT1-MMP act inh RFP – further read-out of MT1-MMP act inh, marked with its call; RFP signal change, %; measured here: RFP expression control read;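 0 = vehicle wells; hits needed this value within 50% of zero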
* = called active by the depositor; i = inactive; ? = inconclusive; / = no result given; & = joins results of further samples; [ ] = remark or other dose.

SMILES	Rce1 inhib	PABP polyA inh	Env fusion inh	eIF4H FP inh	MT1-MMP act inh	MT1-MMP act inh RFP	UUG fidelity	CSC inhib	others
CCc1ccccc1NC(=O)CNC(=O)CSC(=S)N1CCCC1	/	/	-23	/	3	5	-18	/
CCOc1ccc(-c2n[nH]c(=S)n2/N=C/c2cc3c(cc2[N+](=O)[O-])OCO3)cc1	i	5	1	86*	16	-4	-21	-3	eIF4H FP inh retest=80*;PABP polyA inh retest=22
COc1ccccc1C1CN(c2ccccc2)N=C1c1cccs1 (stereo not given)	i	-8	/	-9	-6	-1	-5	1
Cc1cc(C)nc(NC(=O)c2cc(Br)ccc2Cl)n1	i	7	-4	0	2	3	/	-6
Cc1cc(N2CCN(S(=O)(=O)c3ccc4c(c3)OCCO4)CC2)n2ncnc2n1	i	5	-50	-3	0	6	-16	7
COC(=O)c1cc(NC(=O)Nc2ccccc2)ccc1Cl	i	-9	/	-9	1	-2	-14	19
O=C(CSc1ncn[nH]1)NCCc1ccc(Cl)cc1	i	4	-15	1	-2	1	-13	/
CC(=O)n1cc([C@H]2C=C(C(=O)N3CCN(Cc4ccc5c(c4)OCO5)CC3)O[C@@H](OCc3ccc(CO)cc3)C2)c2ccccc21	i	-2	21[16.7 µM]	-15	-3	-9	16&-4	11
Cc1cccc(-n2c(SCC(N)=O)nnc2-c2ccccn2)c1C	i	-6	/	5	4	-3	-11	-19
O=C(Nc1ccccc1N1CCCC1)c1ccco1	/	5	/	12	-14	-2	-24	-6
O=C(c1nc2ccc(Cl)cn2c1CNCCn1ccnc1)N1CCCCCCC1	i	10	11	9	-5	0	-2	-2
CCc1nnc(NC(=O)c2cccc(S(=O)(=O)N3CCN(c4ccccc4)CC3)c2)s1	i	2	/	3	-13	-21	-4	-17
CC(C)C1CCC(C(=O)N[C@H](Cc2ccccc2)C(=O)O)CC1 (stereo not given in full)	i	6	/	5	/	/	/	-11
O=C(Nc1nccs1)c1ccc(S(=O)(=O)NCC2CCCCC2)cc1	i	-6	?	-5	5	-19	-5	-8
Cc1nnc(SCC(=O)Nc2nonc2C)s1	i	0	-8	-2	-1	1	-16	/
COc1ccccc1-c1c(C)nn2c(C)c(C(C)=O)cnc12	i	-15	/	-4	-2	2	16	-10
CCOc1ccc(C(=O)Nc2ccc(N3CCN(C)CC3)cc2)cc1	i	-9	6	-1	-2	-1	1	-7
O=C1NC[C@H](c2ccccc2)OC(=O)[C@H](Cc2ccc(F)cc2)C/C=C\C[C@H]1CC(=O)N(CCO)Cc1ccccc1	/	/	8	/	-6	-2	2	36
COc1ccccc1NC(=O)NCCCCc1ccccc1	i	-6	1	-1	1	-1	2	0
CC(=O)N1C(=O)C2(C(C#N)=C(N)Oc3c2c(C)nn3-c2ccccc2)c2ccccc21 (stereo not given)	i	7	/	-18	1	2	12	/

Filtered by structure: the entries above containing sulfur
SMILES	Rce1 inhib	PABP polyA inh	Env fusion inh	eIF4H FP inh	MT1-MMP act inh	MT1-MMP act inh RFP	UUG fidelity	CSC inhib	others
CCc1ccccc1NC(=O)CNC(=O)CSC(=S)N1CCCC1	/	/	-23	/	3	5	-18	/
CCOc1ccc(-c2n[nH]c(=S)n2/N=C/c2cc3c(cc2[N+](=O)[O-])OCO3)cc1	i	5	1	86*	16	-4	-21	-3	eIF4H FP inh retest=80*;PABP polyA inh retest=22
COc1ccccc1C1CN(c2ccccc2)N=C1c1cccs1 (stereo not given)	i	-8	/	-9	-6	-1	-5	1
Cc1cc(N2CCN(S(=O)(=O)c3ccc4c(c3)OCCO4)CC2)n2ncnc2n1	i	5	-50	-3	0	6	-16	7
O=C(CSc1ncn[nH]1)NCCc1ccc(Cl)cc1	i	4	-15	1	-2	1	-13	/
Cc1cccc(-n2c(SCC(N)=O)nnc2-c2ccccn2)c1C	i	-6	/	5	4	-3	-11	-19
CCc1nnc(NC(=O)c2cccc(S(=O)(=O)N3CCN(c4ccccc4)CC3)c2)s1	i	2	/	3	-13	-21	-4	-17
O=C(Nc1nccs1)c1ccc(S(=O)(=O)NCC2CCCCC2)cc1	i	-6	?	-5	5	-19	-5	-8
Cc1nnc(SCC(=O)Nc2nonc2C)s1	i	0	-8	-2	-1	1	-16	/

The results go on:
SMILES	Rce1 inhib	PABP polyA inh	Env fusion inh	eIF4H FP inh	MT1-MMP act inh	MT1-MMP act inh RFP	UUG fidelity	CSC inhib	others
Cc1csc(Nc2ccc(C(=O)O)cc2)n1	i	-8	-2	-5	0	-1	-17	11
Cc1cccc(C(C)C)c1NC(=O)C(C)OC(=O)Cn1cnc2c1c(=O)n(C)c(=O)n2C (stereo not given)	i	/	7	/	1	9	-11	-5
CCCCc1ccc(NC(=O)CC(C)=O)cc1	/	-4	-68	-9	-7	-3	-19	6
COC(=O)CN(C)C(=O)CC1C(=O)NCCN1CC(C)(C)C (stereo not given)	i	14	5	6	1	0	/	-9
O=C(CSc1nnc(CNC(=O)c2cccs2)o1)NCC1CCCO1 (stereo not given)	i	13	-5	8	1	3	/	0
CC(C)(C)Nc1nc(NN)nc(NC(C)(C)C)n1	i	1	/	1	2	4	-25	18
O=C1c2ccccc2C(=O)N1c1cccc2cccnc12	i	-7	-9	64*	-4	-4	/	-9	eIF4H FP inh retest=54*;PABP polyA inh retest=46
CCNCC(=O)N1c2ccccc2CCc2ccc(NC(=O)OC(C)C)cc21	i	-4	11	0	1	-2	-1	3
CCN(CC)CCN(C(=O)/C=C/c1cccs1)c1nc2ccc(F)cc2s1	i	3	-6	-10	-1	0	1	36
O=C(NCc1cccnc1)c1ccc(NC(=O)c2ccc([N+](=O)[O-])cc2)cc1	i	12	9	6	4	-21	-15	-2
CCOC(=O)C1(C)CCN1C(=O)c1cccnc1Oc1ccccc1 (stereo not given)	/	/	2	/	1	4	-8	/
Cc1ccc(-c2cn(S(=O)(=O)c3ccc(C)cc3)nc2N)cc1	i	-8	36	1	-4	-7	1	/
O=C(NC1CC(=O)N(c2ccccc2)C1)C1CC1 (stereo not given)	i	/	-2	/	0	2	-2	-12
C[C@H]1CNC(=O)c2c(C(=O)N3CCN(C(=O)OC(C)(C)C)CC3)ncn21	/	/	72*	/	5	-2	-2	/
Cc1c(NC(=O)COC(=O)/C=C/c2ccc(Cl)cc2)c(=O)n(-c2ccccc2)n1C	i	4	15	-2	-2	6	/	-22
O=C(CSCC(=O)Nc1nc(-c2ccc3c(c2)OCO3)cs1)Nc1nccs1	i	4	-1	-1	-3	-18	-12	10
COc1ccc(-c2c(NC(=O)c3ccco3)oc3ccccc3c2=O)cc1OC	/	4	/	6	-3	-1	-19	-10
Cc1cc(-n2nc(C)cc2C)nc(NS(=O)(=O)c2ccccc2Cl)n1	i	10	11	-4	-3	5	-9	-5
Cc1ccc(C(=O)NC(=S)NNS(=O)(=O)c2ccccc2)cc1	i	7	6	20	-4	-1	/	-4
CCOC(=O)C1CCCN(C(=O)N2CCOCC2)C1 (stereo not given)	i	-2	-150	8	-3	0	-12	-6
O=C(CCN1CCOCC1)NNC(=O)/C(=C/c1ccccc1)NC(=O)c1ccccc1	i	2	0	-9	0	1	/	10
N=C1C(c2ccccc2)=C(O)C2CCc3ccccc3N12 (stereo not given)	i	-8	/	-1	2	7	-15	/
CCN(CC)c1ccc(NC(=O)c2ccc(=O)[nH]c2)cc1S(=O)(=O)Nc1ccc(OC)cc1	i	/	1	/	-7	-13	1	52
O=C(CN1CCN(c2ncccn2)CC1)N(Cc1ccccc1)c1ccc(F)cc1	i	4	/	-1	-6	-3	2	-10
O=C(CN1CCN(Cc2ccc(F)cc2)CC1)NCc1ccccc1	i	3	14	7	0	2	-14	-3
Nc1c(C(=O)Nc2ccc3c(c2)OCCO3)nnn1Cc1cccc(Br)c1	i	/	-46	/	4	-4	/	77*
Cc1ccc(C(=O)NCC(=O)OCC(=O)Nc2cc(S(=O)(=O)N3CCOCC3)ccc2Cl)s1	/	/	4	/	1	-1	0	-13
CCOc1cc(S(=O)(=O)Nc2ccc(Cl)cn2)ccc1Cl	i	-4	/	1	2	2	-18	12
CCOc1ccc(-n2c(=S)sc3c(=O)[nH]c(SCC(=O)N4CCC(C)CC4)nc32)cc1	i	2	4	-8	-5	0	-13	/
Cc1cc(NC(=O)COC(=O)C2CC(=O)N(c3cccc(Cl)c3)C2)no1 (stereo not given)	i	14	1	-5	0	4	-10	-4
N#Cc1c(-c2ccccc2)ccnc1Oc1ccccc1	i	-14	/	-1	3	-4	-12	19
Nn1c(-c2ccc(F)cc2)nc2ccccc2c1=O	i	-1	-12	-2	-1	2	-14	3
CCOC(=O)C1C(=O)NC(N2CCN(CC)CC2)=NC1c1ccccc1 (stereo not given)	i	-7	-32	-7	3	1	-14	-13
O=C(CCCC(=O)OCC(=O)c1ccc(Cl)cc1Cl)Nc1cc(C(F)(F)F)ccc1Cl	i	0	/	-8	5	2	-22	-16
Cc1ccc(-c2cc(C(F)F)nc(S(C)(=O)=O)n2)cc1	i	-21	21	-4	-8	-6	-11	25
CCCNC(=O)COC(=O)C1CCN(S(=O)(=O)c2ccc3c(c2)OCCO3)CC1	i	/	/	/	0	6	-6	-5
CCOc1cc(C(=O)Nc2ccc3c(c2)OCO3)ccc1OC(F)F	i	16	/	4	17	-10	-9	3
O=C(COC(=O)C(O)c1ccccc1)c1ccc2c(c1)OCCO2 (stereo not given)	i	-2	/	-4	0	0	-60	-1
OC(COC(c1ccc(F)cc1)c1ccc(F)cc1)CN1CCc2ccccc2C1 (stereo not given)	i	-3	26	0	0	1	-1	31
Cc1ccc(NC(=O)CN2C(=O)NC3(CCCc4ccccc43)C2=O)c(C)c1 (stereo not given)	/	/	-20	/	0	1	3	/

Three entries already listed, ordered by formula weight, ascending:
SMILES	Rce1 inhib	PABP polyA inh	Env fusion inh	eIF4H FP inh	MT1-MMP act inh	MT1-MMP act inh RFP	UUG fidelity	CSC inhib	others
N#Cc1c(-c2ccccc2)ccnc1Oc1ccccc1	i	-14	/	-1	3	-4	-12	19
Cc1ccc(-c2cc(C(F)F)nc(S(C)(=O)=O)n2)cc1	i	-21	21	-4	-8	-6	-11	25
CCCNC(=O)COC(=O)C1CCN(S(=O)(=O)c2ccc3c(c2)OCCO3)CC1	i	/	/	/	0	6	-6	-5

Later entries:
SMILES	Rce1 inhib	PABP polyA inh	Env fusion inh	eIF4H FP inh	MT1-MMP act inh	MT1-MMP act inh RFP	UUG fidelity	CSC inhib	others
C=C(c1cn(C(C)=O)c2ccccc12)c1cn(C(C)=O)c2ccccc12	/	/	15	/	-12	-16	-6	/
COc1ccc(C(C)(C)C)cc1NC(=O)c1cc(S(=O)(=O)N(C)C)ccc1N1CCCC1	i	3	39	-8	-4	-10	10	-5
COc1cccc(C(=O)N2CCCc3ccccc32)c1	i	25	-3	-6	1	3	-8	-17
COc1ccc(CN2CCNC(=O)C2CC(=O)NCc2csc(C)n2)c(F)c1 (stereo not given)	i	14	3	4	1	5	-7	-4
COCCn1c(=S)[nH]c2cc(C(=O)N3CCC(C(N)=O)(N4CCCCC4)CC3)ccc2c1=O	/	-1	-39	-3	4	1	/	-7
Cc1ccc(NC(=O)C(C)N2C(=O)c3ccccc3C2=O)c(C)c1 (stereo not given)	i	-3	-2	-2	1	0	-12	-1
Cc1cccc(/C=N/n2c(-c3ccccn3)n[nH]c2=S)c1	i	-9	/	5	/	/	/	-10
CCN(CC)S(=O)(=O)c1cccc(NC(=O)CN(C)C2CCCCC2)c1	i	-14	-12	6	2	-1	/	/

The list is partial; count on the stated rates, not on these rows.
